VACV mCherry inh = vaccinia inhibition (mCherry reporter); Vaccinia virus mCherry reporter infection, fluorescence; about a quarter of the inactives have no number; AID 720579; Potency, µM (doses to about 36.5 µM), inactives show at the top dose activity change, negative = inhibition, hits mostly inhibitors; 310,000 compounds, 0.63% hits; active = well fitted inhibition curve with a large enough effect; inconclusive = small, poorly fitted or top-dose-only effect; inactive = no such curve, though single readings can be large or run the other way; tested in A549 cells; note: nearly all actives have a fitted effect of over 35% in size; inactives centre near -10
VACV Venus inh = inhibitors of vaccinia virus (Venus reporter) | 330,000 compounds, 0.46% hits | Vaccinia virus Venus reporter expression, fluorescence | Potency, µM (highest dose often 36.5 µM), without a hit: top-dose activity change, negative = inhibition, most hits filed as inhibitors | AID 720580; active means well fitted inhibition curve with a large enough effect; inconclusive means small, poorly fitted or top-dose-only effect; inactive means no such curve, though single readings can be large or run the other way; tested in A549 cells; note: nearly all actives have a fitted effect of over 30% in size; inactives centre near -10
Active calls of the source: *; i = inactive; u = inconclusive; x = no result given; & = joins results of further samples; [ ] = dose if it differs, or a comment. % is set by controls: 0 for no effect and ±100 for the full control effect; potency is the fitted concentration of half-maximal effect.

no. | Structure | VACV mCherry inh | VACV Venus inh
1 | Cc1ccc([C@@H]2C[C@H]3CN(Cc4cccc(Cl)c4)C(=O)[C@]34CCCN24)o1 | i | -3%
2 | Cc1ccc2c(Cl)c(C(=O)Nc3nn[nH]n3)sc2c1 | -8% | -12%
3 | Oc1c(Br)cc(Br)c(/C=N/n2c(-c3ccccc3)n[nH]c2=S)c1Br | i | -8%
4 | Cn1c(SSc2ccc(-c3cccnc3)n2C)ccc1-c1cccnc1 | 13µM* | u
5 | O=c1ccc(=O)n(CCc2ccccn2)[nH]1 | i | -10%
6 | COc1ccc(CCn2nnc(-c3ccc(NC(C)=O)c(Cl)c3)n2)cc1 | -7% | -2%
7 | COc1ccc(NS(=O)(=O)c2cc(-c3onc(C)c3C)ccc2C)c(OC)c1 | i | -5%
8 | O=C(NCC1=C(c2ccc3ccccc3c2)C[C@@H]2CC[C@H]1N2Cc1ccco1)c1nccs1 | -9% | -22%
9 | Cn1c(N)c(C(=O)CSc2nnc(NC3CCCCC3)s2)c(=O)n(C)c1=O | i | -21%
10 | CO[C@H]1[C@H](NC(=O)c2cccs2)c2ccccc2C12CCN(Cc1cccn1-c1cccnc1)CC2 | -9% | -4%
11 | C/C=C/C(=O)Nc1ccccc1Br | -8% | -6%
12 | OC1COC(OCC2OC(OCc3ccccc3)C(O)C(O)C2O)C(O)C1O (centres undefined) | -6% | -10%
13 | O=C(NCc1ccc2c(c1)OCO2)c1ccc2c(c1)C(=O)N(Cc1cccnc1)C2=O | x | -12%
14 | Cc1ccc(S(=O)(=O)N2CCN(S(=O)(=O)N3CCCCC3)CC2)c(C)c1 | -9% | 2%
15 | COc1ccccc1C(=O)NCCn1cc(SCC(=O)NCC2CCCO2)c2ccccc21 (centres undefined) | -6% | -16%
16 | Cc1ccc2[nH]c3c(=O)n(CCCN4CCOCC4)cnc3c2c1 | -24% | -19%
17 | CCN(CC(=O)NCc1cccs1)C(=O)c1ccc(S(=O)(=O)Nc2ccccc2C)cc1 | -27% | -19%
18 | O=C1OC(Nc2ccc3c(c2)OCO3)c2ccccc21 (centres undefined) | u | u
19 | Cc1nc(C(=O)Nc2cccc(Cl)c2Cl)nn1-c1cc(OC(C)C)c(Cl)cc1Cl | -9% | -6%
20 | COc1ccc(-c2cn3nc(SCC(=O)Nc4ccccc4F)ccc3n2)cc1 | -5% | -17%
21 | Cc1ccc(S(=O)(=O)N(Cc2ccccc2)c2ccccc2C(=O)N2CCCCC2)cc1 | u | -13%
22 | Cc1ccc(C2(C)NC(=O)N(CC(=O)NNC(=O)c3cc(C)oc3C)C2=O)cc1 (centres undefined) | -9% | -7%
23 | O=C(CN1C(=O)/C(=C/c2cccc(Br)c2)SC1=S)NC1=NCCS1 | -4% | 17%
24 | CCOC(=O)N1CCN(CC(=O)Nc2ccc(F)c(F)c2F)CC1 | i | -7%
25 | COCCN1C(=O)C(=O)/C(=C(/O)c2ccc(S(=O)(=O)N3CCCCC3)cc2)C1c1ccc(OC)c(OC)c1 (centres undefined) | -4% | 2%
26 | COc1ccc(CCNC(=O)c2ccccc2NC(=O)c2ccco2)cc1OC | u | -15%
27 | CN(C)CCn1nnnc1SCC1=C(C(=O)O)N2C(=O)[C@@H](NC(=O)Cc3csc(N)n3)[C@H]2SC1 | -26% | -17%
28 | Clc1cccc(-n2ncc3c(NCCCn4ccnc4)ncnc32)c1 | -8% | 0%
29 | O=C(Nc1cccc(Cl)c1Cl)c1csc([C@@H]2O[C@H](CO)[C@@H](O)[C@H]2O)n1 | 10% | 12%
30 | Cc1sc2ccccc2c1CNC[C@H]1O[C@@H](n2cnc(C(N)=O)n2)[C@H](O)[C@@H]1O | -13% | 7%
31 | CCOc1cc(OCC)cc(C(=O)NCCN2CCC(n3c(=O)[nH]c4ccccc43)CC2)c1 | -28% | -27%
32 | CCc1ccc2c(c1)cc(CN(C(=S)Nc1ccccc1C)C1CC1)c1nnnn12 | -11% | -6%
33 | CCOC(=O)CSc1nc2c(c(=O)n1-c1ccc(OCC)cc1)SCC2 | -11% | -1%
34 | CCOc1ccccc1CNC(=O)c1cc(-c2ccc(OC)cc2)nc2ccc(C(C)C)cc12 | -11% | -14%
35 | O=C(O)C(c1ccccc1)N1C(=O)/C(=C\c2ccc(-c3cccc(Cl)c3)o2)SC1=S (centres undefined) | i | -7%
36 | Cc1cc(C)n2nc(C(=O)OCC(=O)NC3CCS(=O)(=O)C3)nc2n1 (centres undefined) | i | -1%
37 | Cc1cc(NC(=O)Nc2ccccc2[N+](=O)[O-])no1 | -3% | 1%
38 | COc1c(C)cc(C(=O)C2CCCN(Cc3c(C)n(C)n(-c4ccccc4)c3=O)C2)cc1C (centres undefined) | -10% | -3%
39 | CCCCCCN1C[C@@H](n2cc(COC(=O)c3ccccc3)nn2)[C@H](O)C[C@@H]1c1ccc(C)cc1 | u | u
40 | CC(C)CC1NC(=O)N(CC(=O)Nc2ccccc2-c2ccccc2)C1=O (centres undefined) | -6% | -7%
41 | CCN(C(=O)CSc1nnc(-c2ccc(Cl)cc2)n1C)C1CCS(=O)(=O)C1 (centres undefined) | -3% | -17%
42 | CC1CC1C(=O)Nc1nc2ccc(Cl)cc2s1 (centres undefined) | -5% | u
43 | O=C(CNc1cccc2ccccc12)N/N=C/C(Br)=C/c1ccccc1 | -17% | u
44 | COc1ccc(OC)c(S(=O)(=O)n2cccn2)c1 | -8% | 2%
45 | CC(C)N(C(=O)CSc1nc(COc2ccccc2)nc2ccccc12)C(C)C | -15% | -18%
46 | CC(C)=N/N=C(/c1ccc([N+](=O)[O-])cc1)C12CN3CN(CN(C3)C1)C2 | -6% | 3%
47 | CC(=O)C1=C(O)C2(C)c3c(O)c(C)c(O)c(C(C)=O)c3OC2CC1=O (centres undefined) | u | u
48 | CCCN1CCC(=O)N([C@H](CO)Cc2ccccc2)CC1 | -24%&-21% | -7%&-13%
49 | CCCCc1cc(=O)oc2cc(OCC(=O)NCc3ccccn3)ccc12 | -20% | -5%
50 | CCc1nn2c(-c3ccccc3OC)ccnc2c1-c1ccc(F)cc1 | -20% | -19%
51 | COc1ccc(NC(=O)C[C@H]2C(=O)N(c3ccccc3)C[C@@H]2C)cc1 | -3% | -13%
52 | COc1cc(OC)c(Nc2cc(C)nc3ncnn23)cc1Cl | 11% | -1%
53 | Cc1ccc(NC(=O)c2ccccc2)cc1-n1cnnn1 | i | -11%
54 | O=C(Nc1cccc([N+](=O)[O-])c1)c1ccc(CN2CCOCC2)cc1 | -11% | -15%
55 | COc1ccccc1C(C)Nc1nc(-c2cccnc2)nc2ccccc12 (centres undefined) | -5% | -21%
56 | COc1cccc(-c2nc(-c3ccc(-c4ccccc4)nc3OC)no2)c1 | -7% | 5%
57 | CCN(C(=O)COC(=O)c1cc2c(s1)CCCC2)c1c(N)n(Cc2ccccc2)c(=O)[nH]c1=O | -12% | -22%
58 | O=S(=O)(c1cc(Cl)ccc1Cl)n1ccnc1 | -6% | 2%
59 | COC(=O)Cn1c(CN2CCN(c3ccc(F)cc3)CC2)nc2c1c(=O)n(C)c(=O)n2C | u | -17%
60 | CCN(Cc1ccccc1)S(=O)(=O)c1c(C(=O)N2CCCC2)c(C)n(C)c1C | i | -12%

Carrying on.
no. | Structure | VACV mCherry inh | VACV Venus inh
61 | COCCNc1oc(-c2ccc(F)cc2)nc1C#N | x | -5%
62 | COc1ccccc1C1CN=NC12CCCc1ccccc1C2=O (centres undefined) | -26% | -17%
63 | O=c1ccn([C@@H]2O[C@H](CNCc3ccc(-c4cc(C(F)(F)F)ccc4Cl)o3)[C@@H](O)[C@H]2O)c(=O)[nH]1 | -17% | -19%
64 | CC(C)/C=N/Nc1nc(-c2ccc(Br)cc2)cs1 | u | u
65 | C=C(C)CSc1nc(N)cc(=O)[nH]1 | -11% | -25%
66 | OC1(c2ccc(F)cc2)CC2CCC(C1)N2Cc1nnnn1C1CCCC1 (centres undefined) | -14% | -8%
67 | COCC(C)NCc1cc(Br)ccc1OC (centres undefined) | -4% | 1%
68 | Cc1cc(OCc2ccccc2)ccc1/C(O)=C1/C(=O)C(=O)N(Cc2cccnc2)C1c1ccncc1 (centres undefined) | i[7.34 µM] | -2%[7.34 µM]
69 | COC(=O)C(C)Oc1cc(OC(C)C(=O)OC)c2c(-c3ccccc3)cc(=O)oc2c1 (centres undefined) | -9% | -10%
70 | CCC(C(=O)NC(C)(C)C)N(Cc1ccco1)C(=O)CNS(=O)(=O)c1ccc(OC)cc1 (centres undefined) | i | 0%
71 | O=C(OCc1nc2ccccc2s1)c1ccccc1O | -17% | -13%
72 | N#Cc1ccc(C(C(=O)NCc2ccccc2)n2c(=O)c(-c3cc4ccccc4[nH]3)nc3ccccc32)cc1 (centres undefined) | u | -28%
73 | O=C(CSCc1cccc(Cl)c1)NCc1ccc2c(c1)OCO2 | -10% | -5%
74 | Cc1ccc(S(=O)(=O)NCC(=O)Nc2cccc([N+](=O)[O-])c2)cc1 | -6% | -14%
75 | CSCCC(NS(=O)(=O)/C=C/c1ccccc1)C(=O)O (centres undefined) | i | -7%
76 | c1ccc2c(c1)OCCOCCOc1ccccc1OCCOCCO2 | i | -10%
77 | COc1ccc(C(=O)Nc2nnc(S(=O)(=O)N(CC(C)C)c3ccc(C)cc3)s2)cc1OC | u | u
78 | COc1ccc(C2CC(O)(c3ccccc3)Oc3cc(OC)c(OC)c(OC)c32)cc1 (centres undefined) | -22% | -26%
79 | CCN(CC)C(=O)C(=O)N/N=C/c1ccc(C(=O)OC)cc1 | -15% | 3%
80 | Cc1ccc(S(=O)(=O)N2CC(=NN=C(N)N)C2)cc1 | -3% | -13%
81 | c1ccc2c3c([nH]c2c1)C1(CCCCC1)NCC3 | -6% | -10%
82 | CCOC(=O)c1ccccc1NC(=O)COC(=O)CSCC(=O)Nc1cc(C)on1 | 1% | -1%
83 | O=C(O)CCCCCNC(=O)/C=C/c1ccco1 | i | -15%
84 | CCOC(=O)CCn1cnc2onc(-c3cc(OC)ccc3Cl)c2c1=O | -5% | -3%
85 | CCS(=O)(=O)N1CCc2cc(C(=O)NCc3ccc(OC)cc3)ccc21 | -15% | -3%
86 | CS(=O)(=O)N1CCN(C(=O)c2cccnc2)CC1 | i | -13%
87 | C=CCn1c(C)cc(C(=O)COC(=O)CCc2cc(OC)c(OC)c(OC)c2)c1C | i | -8%
88 | O=C(c1cc(-c2ccccc2Cl)nc2ccccc12)N1CCC1 | -5% | -1%
89 | CNc1c(NS(=O)(=O)c2ccc(F)c(Cl)c2)c(=O)oc2ccccc12 | -2% | -1%
90 | Cn1cc(/C=C2\SC(=O)N(c3ccc(O)cc3)C2=O)c2ccccc21 | -4%[7.34 µM] | -3%[7.34 µM]

Record cards (already shown):
COc1ccccc1C1CN=NC12CCCc1ccccc1C2=O (centres undefined) is listed with VACV mCherry inh: -26%; VACV Venus inh: -17%
COCC(C)NCc1cc(Br)ccc1OC (centres undefined) is listed with VACV mCherry inh: -4%; VACV Venus inh: 1%

(listing goes on)
no. | Structure | VACV mCherry inh | VACV Venus inh
91 | c1ccc(CNc2ncnc3nc[nH]c23)nc1 | -11% | -2%&-7%
92 | Cc1cc(C(=O)OCC(=O)Nc2cccc(S(N)(=O)=O)c2)c(C)o1 | -10% | -5%
93 | COc1cccc(C(=O)/C=C/c2ccc(N3CCCCC3)c([N+](=O)[O-])c2)c1 | u | u
94 | CC(CCC(=O)O)C1CC[C@@]2(C)C3C(=O)CC4C(C)(C)C(O)CC[C@]4(C)C3C(=O)C[C@]12C (some centres undefined) | -15% | 0%
95 | CCC(=O)Nc1ccc(C(=O)OCc2ccccc2)cc1 | -2% | -2%
96 | Cn1c(=O)c2ccccc2n2c(CCl)nnc12 | -9% | -27%
97 | COc1ccc(-c2cc(-c3nnc(COC(=O)CC4CCCC4)o3)c3ccccc3n2)cc1OC | i | -5%
98 | CCN(Cc1ccccc1)C(c1ccc(C)cc1)c1nnnn1C(C)(C)CC (centres undefined) | -21% | -15%
99 | Cc1cc(=O)oc2cc(NC(=O)CN3C(=O)NC(C)(c4ccccc4)C3=O)ccc12 (centres undefined) | -1% | 3%
100 | CC(=O)N1c2ccc(S(=O)(=O)N(C)CC(=O)N(C)Cc3ccccc3)cc2CC1C (centres undefined) | -21% | -11%
101 | CS(=O)(=O)NNC(=O)c1cc2cc3ccccc3nc2s1 | i | -2%

Structures shown so far that have an NH in an aromatic ring:
no. | Structure | VACV mCherry inh | VACV Venus inh
2 | Cc1ccc2c(Cl)c(C(=O)Nc3nn[nH]n3)sc2c1 | -8% | -12%
3 | Oc1c(Br)cc(Br)c(/C=N/n2c(-c3ccccc3)n[nH]c2=S)c1Br | i | -8%
5 | O=c1ccc(=O)n(CCc2ccccn2)[nH]1 | i | -10%
16 | Cc1ccc2[nH]c3c(=O)n(CCCN4CCOCC4)cnc3c2c1 | -24% | -19%
31 | CCOc1cc(OCC)cc(C(=O)NCCN2CCC(n3c(=O)[nH]c4ccccc43)CC2)c1 | -28% | -27%
57 | CCN(C(=O)COC(=O)c1cc2c(s1)CCCC2)c1c(N)n(Cc2ccccc2)c(=O)[nH]c1=O | -12% | -22%
63 | O=c1ccn([C@@H]2O[C@H](CNCc3ccc(-c4cc(C(F)(F)F)ccc4Cl)o3)[C@@H](O)[C@H]2O)c(=O)[nH]1 | -17% | -19%
65 | C=C(C)CSc1nc(N)cc(=O)[nH]1 | -11% | -25%
72 | N#Cc1ccc(C(C(=O)NCc2ccccc2)n2c(=O)c(-c3cc4ccccc4[nH]3)nc3ccccc32)cc1 (centres undefined) | u | -28%
81 | c1ccc2c3c([nH]c2c1)C1(CCCCC1)NCC3 | -6% | -10%
91 | c1ccc(CNc2ncnc3nc[nH]c23)nc1 | -11% | -2%&-7%

Screening data: PubChem, National Center for Advancing Translational Sciences (NCATS)
